Bioassay records as filed in PubChem BioAssay.
A1 apoptosis 2: A1 inhibition read as caspase activation. MEF A1-2A-BIM cells, caspase-Glo luminescence, 3 h; percent of clofoctol response, DMSO zero. caspase activation, % (test concentration not listed). 24,000 tested, under 10 active. AID 2465; in the data active = caspase activation above about 5.9%;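 note: wells of about 30 µL received 50 nL stock; the first replicate is given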
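Test system – A1-2A-BIM-expressing MEF cells · Input – 2500 cells/well · Medium – RPMI-1640 growth medium with 10% FBS · Compound dosing – 50 nL pinned compound · Timing – 3 h compound exposure at 37 °C · Technique – Caspase-Glo luminescence (DEVD substrate) · Evaluation – Caspase-3/7 activity from luminescence increase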
Starred values were filed as active, the others as inactive. A portion of the library; rates above refer to the full screens.

For CCOC(=O)[C@@H]1[C@@H]2NC(=S)N[C@@]1(C)Oc1ccccc12 the results were A1 apoptosis 2 0.4.
For C[C@H]1CN([C@@H](C)CO)C(=O)CCCn2cc(nn2)CO[C@@H]1CN(C)C(=O)Oc1ccc2ccccc2c1 the results were A1 apoptosis 2 -0.2.
`Cc1ccc(OC(=O)N(C)C[C@@H]2OCc3cnnn3CCCC(=O)N([C@H](C)CO)C[C@@H]2C)cc1` gave A1 apoptosis 2 0.0.
`C[C@@H]1CN([C@H](C)CO)C(=O)CCCn2nncc2CO[C@H]1CN(C)C(=O)Oc1ccc2ccccc2c1` gave A1 apoptosis 2 1.3.
[N-]=[N+]=Nc1cccc(C(=O)O)c1 was read as A1 apoptosis 2 0.3.
For CCOC(=O)[C@@H]1[C@@H]2NC(=S)N(C)[C@@]1(C)Oc1ccccc12 the results were A1 apoptosis 2 -0.5.
Cc1ccc(OC(=O)N(C)C[C@@H]2OCc3cnnn3CCCC(=O)N([C@@H](C)CO)C[C@@H]2C)cc1 was read as A1 apoptosis 2 0.7.
For C[C@@H]1CN([C@@H](C)CO)C(=O)CCCn2nncc2CO[C@@H]1CN(C)C(=O)Oc1ccc2ccccc2c1 the results were A1 apoptosis 2 0.1.
Screening CC(/C=C/C(=O)NO)=C\c1ccccc1OC[C@@H]1C=C2c3cccc4[nH]cc(c34)C[C@H]2N(C)C1 returned A1 apoptosis 2 -1.1.
Cc1ccc(OC(=O)N(C)C[C@H]2OCc3cnnn3CCCC(=O)N([C@@H](C)CO)C[C@@H]2C)cc1 was read as A1 apoptosis 2 -0.6.

A portion of the results above:
For CCOC(=O)[C@@H]1[C@@H]2NC(=S)N(C)[C@@]1(C)Oc1ccccc12 the results were A1 apoptosis 2 -0.5.
Cc1ccc(OC(=O)N(C)C[C@@H]2OCc3cnnn3CCCC(=O)N([C@@H](C)CO)C[C@@H]2C)cc1 was read as A1 apoptosis 2 0.7.
For C[C@@H]1CN([C@@H](C)CO)C(=O)CCCn2nncc2CO[C@@H]1CN(C)C(=O)Oc1ccc2ccccc2c1 the results were A1 apoptosis 2 0.1.
Screening CC(/C=C/C(=O)NO)=C\c1ccccc1OC[C@@H]1C=C2c3cccc4[nH]cc(c34)C[C@H]2N(C)C1 returned A1 apoptosis 2 -1.1.

Sorted by count of non-hydrogen atoms (low to high): some entries from above.
For CCOC(=O)[C@@H]1[C@@H]2NC(=S)N(C)[C@@]1(C)Oc1ccccc12 the results were A1 apoptosis 2 -0.5.
`Cc1ccc(OC(=O)N(C)C[C@@H]2OCc3cnnn3CCCC(=O)N([C@H](C)CO)C[C@@H]2C)cc1` gave A1 apoptosis 2 0.0.
For C[C@H]1CN([C@@H](C)CO)C(=O)CCCn2cc(nn2)CO[C@@H]1CN(C)C(=O)Oc1ccc2ccccc2c1 the results were A1 apoptosis 2 -0.2.
